Compound activity deposited in PubChem by National Center for Advancing Translational Sciences (NCATS).
MARV entry inh: inhibitors of Marburg virus binding or cell entry. Marburg virus pseudotyped entry inhibition, cell reporter; control for the full effect not named in the record; about a third of the inactives were read at about 46 µM. Potency, µM (highest dose often 37.8 µM), for the others: at the top dose activity change, negative = inhibition, actives largely listed as inhibitors. hit rate 1.8% among 300,000; active = well fitted inhibition curve with a large enough effect; inconclusive = small, poorly fitted or top-dose-only effect, or effect the other way; inactive = flat fitted curve, though single readings scatter; tested in HEK293 cells; about a fifth of its hits are not listed in these tables; note: % is set by controls: 0 for no effect and ±100 for the full control effect; luciferase read-out
Cruzain noTriton: inhibitors of Trypanosoma cruzi cruzain without detergent. P25779. purified cruzain, Z-FR-AMC fluorescence, no detergent. Potency, µM, for the others: max response, negative = inhibition, hits mostly inhibitors. hit rate 2.3% among 200,000. AID 1476;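 note: plate controls were enzyme without inhibitor for no effect and buffer without enzyme for full effect; nearly all actives have a fitted effect of over 40% in size; top concentration of the series not given in the record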
Target sequence (P25779 123-467 limits assumed): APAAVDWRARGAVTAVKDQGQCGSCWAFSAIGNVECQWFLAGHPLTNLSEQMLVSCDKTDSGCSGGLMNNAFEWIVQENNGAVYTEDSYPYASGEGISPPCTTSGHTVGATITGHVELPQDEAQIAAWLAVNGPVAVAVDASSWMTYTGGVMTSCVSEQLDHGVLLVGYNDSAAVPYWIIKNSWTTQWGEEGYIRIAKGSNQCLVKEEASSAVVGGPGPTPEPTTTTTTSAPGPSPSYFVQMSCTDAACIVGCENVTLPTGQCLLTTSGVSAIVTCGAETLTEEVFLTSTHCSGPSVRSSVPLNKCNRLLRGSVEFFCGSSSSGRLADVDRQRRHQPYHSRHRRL
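Purified cruzain at 1.5 nM, pre-incubated 15 min with compound at room temperature in 100 mM sodium acetate pH 5.5, 5 mM DTT, 0.00005% Triton X-100. Reaction started with 2 uM Z-FR-AMC; AMC fluorescence increase over 60 s gives rate.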
RE007 growth inh: less growth of the S. pombe RE007 Vpr strain; hit rate 0.21% among 360,000; Potency, µM (series often up to 92.2 µM), without a hit: at the highest dose activity change, negative = less growth; S. pombe RE007 Vpr strain, BacTiter-Glo ATP luminescence, 24 h; control for the full effect not named in the record; active = well fitted falling curve with a large enough effect; inconclusive = small, poorly fitted or top-dose-only effect; inactive = no such curve, though single readings can be large or run the other way;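 note: % is set by controls: 0 for no effect and ±100 for the full control effect; nearly all actives have a fitted effect of over 50% in size; the assay follows cell death caused by Vpr and the record does not say whether a fall means rescue or toxicity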
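Fission yeast RE007 carrying one integrated HIV-1 vpr copy, seeded at OD 0.01 in PMG+AL medium with 23 nL pinned compound. Grown 24 h at 30 degrees; viability read by BacTiter-Glo luminescence after 5 min.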
Cruzain Triton: inhibitors of Trypanosoma cruzi cruzain with detergent | P25779 | purified cruzain, Z-FR-AMC fluorescence, 0.01% Triton | Potency, µM, for inactives: max response, negative = inhibition, usual class: inhibitors | hit rate 0.43% among 200,000;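 note: plate controls were neutral wells for no effect and buffer without enzyme for full effect; nearly all actives have a fitted effect of over 40% in size; top concentration of the series not given in the record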
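Compounds were screened in titration against cruzain (1.5 nM) with 0.01% Triton X-100 to counter colloidal aggregation. Activity was the AMC fluorescence increase over 60 s after adding 2 uM Z-FR-AMC at pH 5.5.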
SARS PLP yeast: blocks SARS-CoV papain-like protease in a yeast assay. S. cerevisiae expressing SARS-CoV PLpro, growth rescue; control for the full effect not named in the record. Potency, µM (series often up to 32.9 µM), for the others: at the top dose activity, positive = growth rescue. hit rate 0.19% among 330,000. AID 485353; active means well fitted rising curve with a large enough effect; inconclusive means small, poorly fitted or top-dose-only effect; inactive means no such curve, though single readings can be large or run the other way; note: 0% is about no effect; nearly all actives have a fitted effect of over 55% in size; growth read by luminescence after 48 h
Lassa entry inh: blocks Lassa virus binding to or entry into cells; Potency, µM (titrated, usually from 37.9 µM), without a hit: at the highest dose activity change, negative = inhibition, hits mostly inhibitors; hit rate 1.2% among 300,000; AID 540256; Lassa virus pseudotype entry inhibition, cell reporter; control for the full effect not named in the record; active means well fitted inhibition curve with a large enough effect; inconclusive means small, poorly fitted or top-dose-only effect, or effect the other way; inactive means flat fitted curve, though single readings scatter; tested in HEK293 cells; note: % is set by controls: 0 for no effect and ±100 for the full control effect; nearly all actives have a fitted effect of over 50% in size; luciferase read-out
NS1 function inh: inhibitors of influenza NS1 protein function; S. cerevisiae slowed by influenza A NS1, growth recovery by OD600; Potency, µM (doses to about 46.1 µM), inactives show at the top dose activity, positive = more growth; hit rate 0.4% among 270,000; AID 2326; active means well fitted rising curve with a large enough effect; inconclusive means small, poorly fitted or top-dose-only effect; inactive means no such curve, though single readings can be large or run the other way; note: nearly all actives have a fitted effect of over 50% in size
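Compounds were scored for reversing the slow growth caused by influenza A NS1 in S. cerevisiae, measured by optical density at 600 nm. Assay medium contained 2% galactose at pH 6.0; NS1-free yeast of the same strain were the positive control.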
2A StopGo: lowers the luciferase signal of an FMDV 2A StopGo reporter; human cells with a luciferase reporter of 2A StopGo recoding; control for the full effect not named in the record; Potency, µM (top dose mostly 57.9 µM), inactives show at the top dose signal change, negative = less light; hit rate 1.2% among 410,000; AID 1159524; active = well fitted falling curve with a large enough effect; inconclusive = small, poorly fitted or top-dose-only effect; inactive = no such curve, though single readings can be large or run the other way; tested in HEK293T cells; note: % is set by controls: 0 for no effect and ±100 for the full control effect; nearly all actives have a fitted effect of over 45% in size; luciferase light after 4 h
* hit, by the source's call; ? = inconclusive; . = no result given; [ ] = dose if it differs, or a comment. Unless noted, calls come from the whole dose curve; as a rule, active = well fitted curve in the direction sought with a large enough effect; inconclusive = small, poorly fitted or top-dose-only effect, or another doubt; inactive = no such curve, though single readings can be large; an effect the other way counts as inactive or inconclusive. Potency is the fitted concentration of half-maximal effect.

Value order: MARV entry inh	Cruzain noTriton	RE007 growth inh	Cruzain Triton	SARS PLP yeast	Lassa entry inh	NS1 function inh	2A StopGo
COC(=O)c1cccc(C23CC4(C2)[C@H](CN(Cc2cccnc2)[C@@H]4c2ccccc2)C3c2ccc(C(F)(F)F)cc2)c1 (stereo not given in full)
→ .	-3%	19%	8.4%	1%	.	8.9µM*	?
O=C(/C(=N/N=C/c1ccc(O)c(O)c1O)c1ccccc1)c1ccccc1
→ ?	-15%	-8%	-12%	-100%	8.9µM*	3.2µM*	-27%
O=C(NCc1cccc(F)c1)C1CCC(=O)N(C2CC2)C1 (stereo not given)
→ -3%[46.1 µM]	.	8%	.	-5%	?	10%	5%
CCN1CCc2c(sc(NC(=O)Cc3ccccc3)c2C(=O)OC)C1
→ .	.	2%	.	-4%	.	-1%	-13%
Cc1ccc(S(=O)(=O)Nc2ccc(-c3ccc(N4CCCCCC4)nn3)cc2)cc1C
→ .	18%	.	1.0%	.	2%[46.1 µM]	.	33%[activator]
CCOCCCNC(=O)c1ccc2c(=O)n(CCc3ccccc3)c(=O)[nH]c2c1
→ 25%[46.1 µM]	-3%	.	-0.1%	.	?	.	8%
CC1CCCN(C(=O)COC(=O)c2ccc[nH]c2=O)C1 (stereo not given)
→ -12%[46.1 µM]	4%	-19%	0.8%	8%	0%	-11%	-15%
Cc1cccc(N(CC(=O)NC2CCCC2)C(=O)CS(=O)CC(=O)Nc2ccc3c(c2)OCO3)c1 (stereo not given)
→ 6%	-4%	-10%	0.5%	9%	3%	1%	25%
COC(=O)CN1CCN(C(c2ccccc2)c2ccccc2)CC1
→ ?	0%	-11%	0.5%	2%	-10%	-1%	-15%
CN1CCN(c2cc(-c3ccccc3)nc3cc(-c4ccc(F)cc4)nn23)CC1
→ ?	7%	-8%	-5.9%	4%	?	5%	-28%
Cc1cccc2c(=O)cc(C)n(CC(N)=O)c12
→ .	.	-23%	.	-1%	.	3%	-10%
COc1ccc(CNS(=O)(=O)c2ccc3c(c2)C(C)(C)C(=O)N3C)cc1OC
→ .	-7%	.	1.9%	.	1%[46.1 µM]	.	1%
CCC(C(=O)OCC(=O)Nc1ccc(Cl)c(S(=O)(=O)N(C)C)c1)c1ccccc1 (stereo not given)
→ 11µM*	-1%	13%	-8.8%	-30%	?	-11%	?
CCOC(=O)c1cnn(-c2nc(-c3ccc(F)cc3)cs2)c1C(F)(F)F
→ 0%	4%	-1%	-12%	13%	-25%	3%	22%
C/C(=N\NC(=O)CCc1ccccc1)c1ccc(Br)cc1
→ -14%[46.1 µM]	.	28%	.	-1%	?	.	8%
O=C(CSc1nnnn1-c1ccc(O)cc1)Nc1ccc(N2CCOCC2)c(Cl)c1
→ 13%	-6%	0%	-4.7%	6%	?	-2%	-11%
Cn1c(C(=O)N2CCC(C(=O)N3CCOCC3)CC2)cc2sccc21
→ .	-4%	-2%	-3.5%	-2%	.	-6%	0%
Cc1cccc(NC(=S)NCc2cccn2C)c1
→ 6%	-3%	-13%	-0.9%	-9%	1%	29%	31%[activator]
O=C1CSC(=S)N1/N=C/c1cc(Br)c(O)c(Br)c1
→ -10%[46.1 µM]	.	5%	.	-5%	7%	-30%	?
Cc1ccc(C(=O)Nn2cnnc2)cc1[N+](=O)[O-]
→ -2%	.	-10%	.	.	?	.	13%
COc1ccccc1NC(=O)C(=O)NCC(c1ccco1)N1CCc2ccccc21 (stereo not given)
→ -24%	.	0%	.	-2%	?	.	-12%
COc1ccc(C(=O)C2CCCN(Cc3ccon3)C2)cc1OC (stereo not given)
→ 2%[46.1 µM]	.	15%	.	-1%	?	0%	3%
O=C(O)c1nn(-c2ccc(Cl)cc2)ccc1=O
→ -26%[46.1 µM]	-2%	-11%	-3.3%	3%	?	2%	7%
CC(=O)c1cccc(NC(=O)CN(c2ccccc2)S(C)(=O)=O)c1
→ 4%	3%	1%	5.0%	6%	-9%	3%	1%
Nc1cc(-c2ccc(Cl)cc2)nn1S(=O)(=O)c1ccccc1
→ .	-3%	-3%	-4.9%	12%	.	11%	-15%
O=C(NCC(=O)N1CCCCC1)c1ccc(Br)o1
→ 40%	.	2%	.	7%	2%	10%	23%
O=C(CSC1=Nc2ccccc2C2CC=NN12)Nc1ccc(F)cc1Cl (stereo not given)
→ .	.	20%	.	-3%	?	-3%	?
Cc1ccc(OC(=O)C2c3ccccc3Oc3ccccc32)cc1C
→ ?	4%	-7%	1.2%	5%	18µM*	-28%	-25%
Cc1nn(-c2ccccc2)c2[nH]c(=O)cc(C(F)(F)F)c12
→ -20%[46.1 µM]	.	-16%	.	-12%	4%	-144%	-22%
CCOC(=O)C1(C)C=C(Nc2ccc(Br)cc2)C(=O)N1c1ccccc1 (stereo not given)
→ 11%[46.1 µM]	5%	.	-1.8%	.	20%[46.1 µM]	.	11%

5 compounds already listed, arranged by molecular weight, highest first.
Value order: MARV entry inh	Cruzain noTriton	RE007 growth inh	Cruzain Triton	SARS PLP yeast	Lassa entry inh	NS1 function inh	2A StopGo
O=C1CSC(=S)N1/N=C/c1cc(Br)c(O)c(Br)c1
→ -10%[46.1 µM]	.	5%	.	-5%	7%	-30%	?
O=C(CSC1=Nc2ccccc2C2CC=NN12)Nc1ccc(F)cc1Cl (stereo not given)
→ .	.	20%	.	-3%	?	-3%	?
Cn1c(C(=O)N2CCC(C(=O)N3CCOCC3)CC2)cc2sccc21
→ .	-4%	-2%	-3.5%	-2%	.	-6%	0%
CCN1CCc2c(sc(NC(=O)Cc3ccccc3)c2C(=O)OC)C1
→ .	.	2%	.	-4%	.	-1%	-13%
O=C(O)c1nn(-c2ccc(Cl)cc2)ccc1=O
→ -26%[46.1 µM]	-2%	-11%	-3.3%	3%	?	2%	7%

Next part:
Value order: MARV entry inh	Cruzain noTriton	RE007 growth inh	Cruzain Triton	SARS PLP yeast	Lassa entry inh	NS1 function inh	2A StopGo
O=C(Cn1c(=O)c2cccn2c2ccccc21)Nc1ccc(F)cc1F
→ .	.	-6%	.	-4%	.	-2%	6%
O=C(NCc1ccccc1)C1=C[C@@H](c2ccc(Br)cc2)C[C@@H](OCCCCO)O1
→ .	.	11%	.	-3%	.	-3%	6%
COc1ccc(CCN=C(N)Nc2nc(C)cc(C)n2)cc1
→ ?	.	-5%	.	-2%	?	.	?
CC1CCCC(NC(=O)C2CCN(S(=O)(=O)N3CCCCCC3)CC2)C1C (stereo not given)
→ 7%	-1%	2%	-2.8%	12%	-3%	-5%	?
Cc1ccc(O)c(-c2cc(C(=O)Nc3ccc(S(=O)(=O)Nc4nccc(C)n4)cc3)[nH]n2)c1
→ ?	.	-13%	.	-1%	2%	-46%	3%
CCCn1nnnc1-c1cccc(Cl)c1
→ -2%	4%	-7%	6.6%	6%	-23%[14.3 µM]	-3%	34%[activator]
CCOC(=O)c1ccccc1NC(=O)COC(=O)C1CC(=O)N(CCc2ccccc2)C1 (stereo not given)
→ -2%	.	0%	.	-8%	-4%	.	?
Cc1cccc(C(=O)Nc2ccc(N3CCC(CCN4CCOCC4)CC3)c(C(=O)O)c2)c1
→ .	-15%	.	3.1%	-3%	2%[46.1 µM]	.	-5%
CCc1ccc(-c2cc(C)no2)cc1S(=O)(=O)N1CCN(c2ccccc2F)CC1
→ ?	.	-10%	.	-3%	?	5%	-19%
COc1ccccc1NC(=O)c1sc(Cl)nc1C
→ .	.	-17%	.	-4%	.	-29%	0%
O=C1C2C3C=CC(C4CC34)C2C(=O)N1c1ccc2c(c1)OCO2 (stereo not given)
→ -3%[46.1 µM]	.	-4%	.	3%	5%	.	19%
CCn1c(SCc2ccc(C(=O)Nc3nccs3)cc2)nnc1-c1ccc(NC(C)=O)cc1
→ -7%	?	-12%	-2.4%	9%	-4%	24%	-11%
Cc1nc2ccc(C(=O)N3CCN(c4ccccc4)CC3)cc2s1
→ -3%	13%	-1%	0.6%	7%	0%	-13%	2%
CC(C)N1CC=C2C(C#N)=C(N)C(C#N)(C#N)[C@H](c3ccoc3)[C@H]2C1
→ .	?	.	-18%	-9%	.	-20%	.
O=C(C1Cc2ccccc2CN1C(=O)c1ccccc1)N1CCN(c2ccccc2)CC1 (stereo not given)
→ -17%[46.1 µM]	.	-23%	.	-1%	?	-1%	-14%
CC1C(=O)N2CCCc3cc(NC(=O)CC(C)(C)C)cc1c32 (stereo not given)
→ .	.	24%	.	-1%	.	11%	-6%
C/C(=N/OC(=O)c1ccc(Cl)cc1Cl)c1oc(C)nc1C
→ 21%[46.1 µM]	.	5%	.	-1%	-4%	-11%	29%
O=C(CSc1ncn[nH]1)N(C1CCCCC1)C1CCCCC1
→ -5%	3%	-3%	0.7%	-4%	16%	6%	-24%
COc1ccc(NC(=O)N2CCN(S(=O)(=O)c3ccc(F)cc3)CC2)c(OC)c1
→ 5%	.	3%	.	-7%	0%	0%	-12%
COc1ccc(OC)c(S(=O)(=O)N2CCc3ccccc3C2)c1
→ .	.	-5%	.	3%	.	3%	49%[activator]
CCOc1ccc(C(=O)CN2CCN(S(=O)(=O)c3ccc(F)cc3)CC2)cc1
→ -23%	-7%	-21%	-3.4%	-7%	-10%	-34%	-23%
CCCCn1c(NCc2ccccc2O)nc2ccccc21
→ .	4%	-11%	5.8%	2%	.	-16%	13%

Compounds from the list above containing two or more sulfur atoms (2):
Value order: MARV entry inh	Cruzain noTriton	RE007 growth inh	Cruzain Triton	SARS PLP yeast	Lassa entry inh	NS1 function inh	2A StopGo
O=C1CSC(=S)N1/N=C/c1cc(Br)c(O)c(Br)c1
→ -10%[46.1 µM]	.	5%	.	-5%	7%	-30%	?
CCn1c(SCc2ccc(C(=O)Nc3nccs3)cc2)nnc1-c1ccc(NC(C)=O)cc1
→ -7%	?	-12%	-2.4%	9%	-4%	24%	-11%
